# NOMO-1 viab = NOMO-1 AML cell viability reduction, primary screen, STK33 inhibitor project, CellTiter-Glo luminescence; NOMO-1 AML viability, 72 h; inhibition, % (no concentration beside the values); 37,000 compounds, 7.5% hits; AID 2330, 2010;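 active = most replicates above 80%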;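 note: wells of about 30 µL received 25 nL stock; 0% = median of vehicle wells and 100% = reference inhibitor level; the first replicate is given; inactives centre near 10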
# * = called active by the depositor. An excerpt (hit frequency here may not be typical).
SMILES,NOMO-1 viab
COc1ccc(NC(=O)Nc2cccc3c2O[C@@H](CN(C)C(=O)Nc2c(C)noc2C)[C@H](C)CN([C@@H](C)CO)C3=O)cc1,-6
Cc1noc(C)c1NC(=O)Nc1ccc2c(c1)CC(=O)N([C@@H](C)CO)C[C@@H](C)[C@@H](CN(C)C(=O)Nc1cccc3ccccc13)O2,-19
C[C@@H]1CN([C@H](C)CO)C(=O)c2cccc(NC(=O)Nc3ccccc3)c2O[C@H]1CN(C)C,4
Cc1ccc(Oc2ccc(NC(=O)CN3C(=O)C4C5C=CC(C6CC56)C4C3=O)cc2)cc1 (configuration not stated),0
Cc1cc(C(=O)Nc2cccc3c2O[C@@H](CN(C)S(=O)(=O)c2ccc(Cl)cc2)[C@H](C)CN([C@H](C)CO)C3=O)n(C)n1,5
COc1ccc(CN(C)C[C@@H]2Oc3c(NC(=O)Nc4c(C)noc4C)cccc3C(=O)N([C@H](C)CO)C[C@H]2C)cc1,2
O=C(Oc1cccc2ccccc12)c1ccccc1,40
C[C@H]1CN([C@@H](C)CO)C(=O)c2cccc(NC(=O)c3nc4ccccc4s3)c2O[C@H]1CN(C)Cc1ccc(C(=O)O)cc1,19
C[C@H](CO)N1C[C@H](C)[C@@H](CN(C)Cc2ccc(C(=O)O)cc2)Oc2ccc(NS(C)(=O)=O)cc2C1=O,21
C[C@@H]1CN([C@@H](C)CO)C(=O)c2cccc(NC(=O)c3nc4ccccc4s3)c2O[C@@H]1CN(C)S(C)(=O)=O,29
COc1ccc(-c2nc(SCC(=O)Nc3ccc(Br)c(Cl)c3)n[nH]2)cc1,1
OC(COc1ccc2c(c1)CCC2)Cn1cnc2ccccc21 (configuration not stated),31
C[C@H](CO)N1C[C@H](C)[C@@H](CN(C)Cc2ccncc2)Oc2ccc(NC(=O)Cn3cnnn3)cc2C1=O,18
COc1ccc(C2CC(c3ccc(Br)cc3)=NN2C(=O)CCN2CCOCC2)cc1 (configuration not stated),40
C/C=C/C=C/C(=O)O[C@@H]1C=C(CO)[C@](O)(CO)[C@@]2(C)CCCC(C)(C)[C@H]12,63
C[C@H](CO)N1C[C@H](C)[C@@H](CN(C)Cc2ccc(Cl)c(Cl)c2)Oc2ccc(NS(=O)(=O)c3cccs3)cc2C1=O,8
C[C@H](CO)N1C[C@H](C)[C@@H](CN(C)Cc2ccccc2)Oc2c(NC(=O)C3CCOCC3)cccc2C1=O,25
COc1ccc(S(=O)(=O)Nc2ccc3c(c2)C(=O)N([C@@H](C)CO)C[C@H](C)[C@@H](CN(C)CC2CCCCC2)O3)cc1,12
Cc1ccc(-c2csc3nnc(SCc4csc(C)n4)n23)cc1,29
C[C@@H]1CN([C@@H](C)CO)C(=O)c2cccc(NC(=O)C3CCCCC3)c2O[C@H]1CN(C)Cc1ccc(C(=O)O)cc1,25
C[C@H](CO)N1C[C@H](C)[C@H](CN(C)Cc2ccc(C(=O)Nc3ccccc3N)cc2)Oc2ccc(NS(=O)(=O)c3cn(C)cn3)cc2C1=O,17
C[C@@H]1CN([C@@H](C)CO)C(=O)c2cc(NC(=O)NC3CCCCC3)ccc2O[C@H]1CN(C)Cc1ccc(C(=O)Nc2ccccc2N)cc1,28
COc1ccc(S(=O)(=O)N(C)C[C@H]2Oc3ccc(NC(=O)Nc4cccc5ccccc45)cc3C(=O)N([C@@H](C)CO)C[C@H]2C)cc1,8
C[C@@H]1CCCCO[C@@H](CN(C)CC2CCCCC2)[C@@H](C)CN([C@H](C)CO)C(=O)c2cc(N(C)C)ccc2O1,4
C[C@H](CO)N1C[C@H](C)[C@H](CN(C)Cc2ccccc2)Oc2ccc(NC(=O)C3CC3)cc2C1=O,16

# Of the compounds above, these have a COOH group:
SMILES,NOMO-1 viab
C[C@H]1CN([C@@H](C)CO)C(=O)c2cccc(NC(=O)c3nc4ccccc4s3)c2O[C@H]1CN(C)Cc1ccc(C(=O)O)cc1,19
C[C@H](CO)N1C[C@H](C)[C@@H](CN(C)Cc2ccc(C(=O)O)cc2)Oc2ccc(NS(C)(=O)=O)cc2C1=O,21
C[C@@H]1CN([C@@H](C)CO)C(=O)c2cccc(NC(=O)C3CCCCC3)c2O[C@H]1CN(C)Cc1ccc(C(=O)O)cc1,25

# (continued)
SMILES,NOMO-1 viab
CCOc1ccc(S(=O)(=O)NCc2ccco2)c(C)c1C,18
O=C(CN1CCN(S(=O)(=O)c2ccc3ccccc3c2)CC1)Nc1ccc(Br)cc1,20
CCOC(=O)CC1=NC(=O)CS1,27
C[C@@H]1CN([C@@H](C)CO)C(=O)c2cccc(NC(=O)Nc3ccc4c(c3)OCO4)c2O[C@@H]1CN(C)Cc1ccc(Oc2ccccc2)cc1,95*
CC(C(N)=O)N(c1ccc(Cl)cc1)S(C)(=O)=O (configuration not stated),-8
C[C@H]1CN([C@@H](C)CO)C(=O)Cc2cc(NC(=O)Cn3cnnn3)ccc2O[C@@H]1CN(C)C(=O)Nc1ccc2c(c1)OCO2,16
COc1cc(C2OCC3(OC4OC(CO)C(O)C(O)C4O)C(c4ccc(O)c(OC)c4)OCC23)ccc1O (configuration not stated),-11
COc1ccc(S(=O)(=O)Nc2cccc3c2O[C@@H](CN(C)Cc2ccccc2)[C@H](C)CN([C@H](C)CO)C3=O)cc1,22
O=C(CSc1nnc(-c2ccccn2)n1-c1ccccc1)Nc1ccc(Br)cc1,30
C[C@@H]1CN([C@H](C)CO)C(=O)Cc2cc(NS(=O)(=O)c3cn(C)cn3)ccc2O[C@H]1CN(C)Cc1ccc(-c2ccccc2)cc1,-1
Cc1cccc(-c2nnc(SCC(=O)Nc3cccc(C)c3C)n2C)c1,8
O=C(CSc1n[nH]c(-c2ccco2)n1)Nc1ccc(Br)cc1,15
C[C@H]1CN([C@@H](C)CO)C(=O)Cc2cc(NC(=O)Cn3cnnn3)ccc2O[C@H]1CN(C)C(=O)NC1CCCCC1,4
COc1ccc(N(CC(=O)Nc2cccc(Br)c2)S(C)(=O)=O)cc1,-1
COc1ccc(S(=O)(=O)Nc2cccc3c2O[C@H](CN(C)S(=O)(=O)c2ccc(OC)cc2)[C@@H](C)CN([C@H](C)CO)C3=O)cc1,17
CC1=C(C(=O)Nc2cccc(Cl)c2)C(c2cc(Br)ccc2OCC(=O)O)NC(=O)N1 (configuration not stated),-13
CCN(CCS(=O)(=O)c1ccc(C)cc1)C(=O)c1ccc(-c2cc(C(F)(F)F)nn2C)s1,-3
C[C@H]1CN([C@@H](C)CO)C(=O)c2cccc(NS(=O)(=O)c3ccc(Cl)cc3)c2O[C@@H]1CN(C)Cc1ccc(Oc2ccccc2)cc1,45
O=C1Nc2ccc(S(=O)(=O)NCCCO)c3cccc1c23,14
CC(C)NC(=O)Nc1ccc2c(c1)C(=O)N([C@H](C)CO)C[C@H](C)[C@H](CN(C)Cc1ccc(C(=O)Nc3ccccc3N)cc1)OCCCC[C@@H](C)O2,27
Cc1ccc(S(=O)(=O)N(C)C[C@H]2Oc3ccc(NC(=O)CCN4CCOCC4)cc3C(=O)N([C@@H](C)CO)C[C@H]2C)cc1,4
COc1ccc(S(=O)(=O)N(C)C[C@@H]2Oc3ccc(NC(=O)CCCN(C)C)cc3C(=O)N([C@@H](C)CO)C[C@H]2C)cc1,1
CS(=O)(=O)N(CC(=O)N1CCC(C(N)=O)CC1)c1cc(Cl)c(Cl)cc1Cl,17
COc1ccc(S(=O)(=O)Nc2ccc3c(c2)C(=O)N([C@H](C)CO)C[C@H](C)[C@H](CN(C)Cc2ccncc2)OCCCC[C@@H](C)O3)cc1,-11
Cc1noc(C)c1S(=O)(=O)Nc1ccc2c(c1)C(=O)N([C@@H](C)CO)C[C@H](C)[C@H](CN(C)Cc1ccc(Oc3ccccc3)cc1)O2,24

# Next section.
SMILES,NOMO-1 viab
O=S(=O)(CCc1nnc(-c2ccccc2)o1)c1ccc(Cl)cc1,0
C[C@@H]1CN([C@H](C)CO)C(=O)Cc2cc(NC(=O)CCN3CCOCC3)ccc2O[C@@H]1CN(C)S(=O)(=O)c1ccc(Cl)cc1,2
C[C@@H]1CCCCO[C@@H](CN(C)S(=O)(=O)c2ccccc2)[C@@H](C)CN([C@H](C)CO)C(=O)c2cc(NC(=O)c3ccncc3)ccc2O1,10
C[C@H](CO)N1C[C@H](C)[C@@H](CN(C)Cc2ccc(C(F)(F)F)cc2)Oc2ccc(NS(=O)(=O)c3cn(C)cn3)cc2C1=O,-12
C[C@H](CO)N1C[C@H](C)[C@H](CN(C)C(=O)Nc2cccc3ccccc23)Oc2ccc(NS(C)(=O)=O)cc2CC1=O,-2
COc1ccc(S(=O)(=O)N(C)C[C@H]2Oc3c(NC(=O)C4CC4)cccc3C(=O)N([C@@H](C)CO)C[C@@H]2C)cc1,-4
C[C@H]1CN([C@@H](C)CO)C(=O)c2cccc(NS(=O)(=O)c3ccccc3)c2O[C@@H]1CN(C)CC1CCCCC1,7
CCCn1c(=N)n(CC(O)c2ccccc2)c2ccccc21 (configuration not stated),-14
C[C@H](CO)N1C[C@H](C)[C@H](CN(C)Cc2ccc(Oc3ccccc3)cc2)Oc2ccc(NS(=O)(=O)c3ccc(F)cc3)cc2CC1=O,126*
COc1ccc(NC(=O)Nc2ccc3c(c2)CC(=O)N([C@@H](C)CO)C[C@H](C)[C@H](CN(C)S(=O)(=O)c2ccc(F)cc2)O3)cc1,110*
COC(=O)c1ccc2c(=O)n(CCc3cnc[nH]3)c(=S)[nH]c2c1,3
COc1cc(NC(=O)CCn2cnc3ccccc3c2=O)c(OC)cc1Cl,21
Cc1cc(C(F)(F)F)nn1CCCNC(=O)c1cc(-c2ccccc2)nc2ccccc12,26
COc1ccc(S(=O)(=O)N2CCc3ccccc3C2)cc1,21
O=S(=O)(c1ccccc1)c1nc(-c2ccco2)oc1NCC1CCCO1 (configuration not stated),19
C[C@@H]1CN([C@@H](C)CO)C(=O)c2cc(NS(=O)(=O)c3ccc(Cl)cc3)ccc2O[C@@H]1CN(C)S(=O)(=O)c1ccc(Cl)cc1,44
C[C@H]1CN([C@@H](C)CO)C(=O)Cc2cc(NC(=O)CCCN(C)C)ccc2O[C@@H]1CN(C)CC1CCCCC1,-1
CNC[C@H]1OCCCC[C@@H](C)Oc2ccc(NC(=O)Nc3ccc(OC)cc3)cc2C(=O)N([C@H](C)CO)C[C@@H]1C,2
Cc1noc(C)c1S(=O)(=O)Nc1ccc2c(c1)C(=O)N([C@@H](C)CO)C[C@@H](C)[C@@H](CN(C)S(=O)(=O)c1ccc(F)cc1)O2,0
COc1ccc(S(=O)(=O)N(C)C[C@@H]2Oc3c(NC(=O)c4ccc(-c5nccs5)cc4)cccc3C(=O)N([C@@H](C)CO)C[C@H]2C)cc1,7
C[C@H](CO)N1C[C@H](C)[C@@H](CN(C)C(=O)Nc2ccccc2)Oc2ccc(NC(=O)Nc3cccc4ccccc34)cc2C1=O,-6
Cc1ccc(S(=O)(=O)Nc2ccc3c(c2)C(=O)N([C@H](C)CO)C[C@H](C)[C@@H](CN(C)C)O3)cc1,-1
CCC(Sc1nc(N)cc(=O)[nH]1)C(=O)Nc1ccc2ccccc2c1 (configuration not stated),-11
Cc1noc(C)c1NC(=O)N(C)C[C@@H]1Oc2ccc(NC(=O)Cc3cn(C)c4ccccc34)cc2C(=O)N([C@H](C)CO)C[C@@H]1C,2
COc1ccc(CN(C)C[C@H]2Oc3c(NC(=O)Nc4ccccc4)cccc3C(=O)N([C@H](C)CO)C[C@@H]2C)cc1,17

# Reprinted at random: 2 compounds from above, in no set order.
SMILES,NOMO-1 viab
C[C@H]1CN([C@@H](C)CO)C(=O)c2cccc(NC(=O)c3nc4ccccc4s3)c2O[C@H]1CN(C)Cc1ccc(C(=O)O)cc1,19
COc1ccc(S(=O)(=O)Nc2ccc3c(c2)C(=O)N([C@H](C)CO)C[C@H](C)[C@H](CN(C)Cc2ccncc2)OCCCC[C@@H](C)O3)cc1,-11

# Further entries follow.
SMILES,NOMO-1 viab
Cn1c2ccccc2c2nnc(SCC(=O)Nc3ccc(Cl)cc3)nc21,2
CCOC(=O)Cc1cc(=O)[nH]c(Nc2nc3ccccc3o2)n1,-21
C[C@@H]1CN([C@H](C)CO)C(=O)c2cccc(NC(=O)c3cnccn3)c2O[C@@H]1CN(C)C,8
Cc1noc(C)c1NC(=O)N(C)C[C@@H]1OCCCC[C@@H](C)Oc2ccc(NC(=O)Nc3cccc4ccccc34)cc2C(=O)N([C@H](C)CO)C[C@@H]1C,8
COc1ccc(C2(C(=O)NCCN3CCOCC3)CCOCC2)cc1,-22
Cc1ccc(NC(=O)CSC2CC(=O)N(c3ccc(Br)cc3)C2=O)cc1Cl (configuration not stated),8
O=C(O)c1cc2cc(Cl)ccc2[nH]1,24
O=C(C(Cc1ccccc1Cl)C(=O)N1CCc2ccccc21)N1CCc2ccccc21,40
Cc1cc(Cl)c(S(=O)(=O)Nc2cc(Cl)ccc2Cl)cc1OCC(N)=O,2
C[C@@H]1CN([C@@H](C)CO)C(=O)c2cc(NC(=O)Cc3cn(C)c4ccccc34)ccc2O[C@H]1CN(C)C(=O)Nc1ccc(C(F)(F)F)cc1,4
C[C@H]1CN([C@@H](C)CO)C(=O)c2cccc(NC(=O)Nc3ccccc3)c2O[C@@H]1CN(C)C(=O)Nc1cccc2ccccc12,14
Cn1c(SCC(=O)Nc2cc(=O)n(C)c(=O)n2C)nc2sc3c(c2c1=O)CCC3,15
COc1ccc(NC(=O)N(C)C[C@H]2Oc3ccc(NC(=O)CCCCCC(=O)Nc4ccccc4N)cc3C(=O)N([C@@H](C)CO)C[C@H]2C)cc1,-2
Cc1c(NC(=O)COc2cccc3ccccc23)cccc1C(=O)O,2
COc1ccc(S(=O)(=O)N(C)C[C@H]2Oc3c(cccc3N(C)C)C(=O)N([C@@H](C)CO)C[C@H]2C)cc1,-9

# Among those listed so far, these contain a furan ring, fused or not.
SMILES,NOMO-1 viab
CCOc1ccc(S(=O)(=O)NCc2ccco2)c(C)c1C,18
O=C(CSc1n[nH]c(-c2ccco2)n1)Nc1ccc(Br)cc1,15
O=S(=O)(c1ccccc1)c1nc(-c2ccco2)oc1NCC1CCCO1 (configuration not stated),19
